Screens as filed in PubChem.
Ecoli rRNA inh: inhibitors of bacterial rRNA selective over humanized ribosomes; E. coli WT GFP vs humanized-ribosome RFP mutants, fluorescence, 24 h; stronger effect = lower value; DMSO median 0, no signal -100; GFP signal change (wild-type ribosome), % (concentration not given with the values); hit rate 1.6% among 350,000; AID 720706;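 active = significant combined selectivity score with lowered wild-type GFP, culture density cut under 30%, mutant RFP and density less affected; inactive = any of these conditions unmet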; note: one replicate is shown; some compounds called inactive have numbers as strong as hits
AF4-AF9 inh: inhibitors of human MLL-AF4/AF9 interaction | P42568 | AlphaScreen, biotin-AF4 peptide binding to FLAG-AF9 | inhibition, % at 10 µM | hit rate 0.47% among 350,000;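 active = every replicate reaching a set inhibition limit, whatever the replicate mean, cut at about 25% in these data; inconclusive = mean inhibition reaches that limit but some replicates miss it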;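 note: 0% = plate neutral control median and 100% = total signal loss; the record names both 10 and 1 µM as test concentration; the first replicate is given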
Target sequence (P42568 whole entry, looked up): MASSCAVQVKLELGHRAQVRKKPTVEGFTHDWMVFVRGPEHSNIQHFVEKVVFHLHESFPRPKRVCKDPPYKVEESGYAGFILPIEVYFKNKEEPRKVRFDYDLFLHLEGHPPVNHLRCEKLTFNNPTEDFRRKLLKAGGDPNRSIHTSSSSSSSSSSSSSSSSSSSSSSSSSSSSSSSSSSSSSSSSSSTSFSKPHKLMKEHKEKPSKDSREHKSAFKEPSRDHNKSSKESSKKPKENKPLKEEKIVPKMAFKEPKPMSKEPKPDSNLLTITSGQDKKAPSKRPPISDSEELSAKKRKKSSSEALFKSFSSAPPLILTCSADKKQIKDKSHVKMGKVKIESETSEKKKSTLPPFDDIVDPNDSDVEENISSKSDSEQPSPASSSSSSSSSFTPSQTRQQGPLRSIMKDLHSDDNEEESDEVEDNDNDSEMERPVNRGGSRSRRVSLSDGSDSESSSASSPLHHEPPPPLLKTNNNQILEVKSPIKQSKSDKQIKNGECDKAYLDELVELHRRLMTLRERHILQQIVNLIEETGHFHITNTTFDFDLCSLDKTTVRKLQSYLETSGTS
Vif A3G: inhibitors of Vif binding to APOBEC3G peptide, primary screen, biochemical, TR-FRET, GST-Vif 1-94, biotin-A3G peptide, dose response retest (AID 1117319) | hit rate 0.57% among 260,000 | TR-FRET GST-Vif / biotin-A3G peptide binding; higher % means a stronger effect; test concentration not given here; strong numbers were not always called active | one-dose inhibition, %; IC50 in µM for titrated hits;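 active = above the screen mean plus three standard deviations and confirmed in dose response; inconclusive = results disagree or hit not tested in dose response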;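 note: Vif residues 1-94 fused to GST binding biotinylated APOBEC3G peptide 110-148; 0% = full assay without inhibitor and 100% = GST in place of GST-Vif; retest series ran down from 100 µM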
FGF22 binding: binders of recombinant human FGF22 by thermal shift; calls only at 9.99 µM; hit rate 1.5% among 340,000; Q9HCT0; AID 651658; SYPRO orange fluorescence; percent of sucrose octasulfate shift, DMSO zero;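 active = melting point raised past a set limit in the mean and every replicate; inconclusive = no clear call; three in four hits are not shown here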
Target sequence (Q9HCT0 whole entry, looked up): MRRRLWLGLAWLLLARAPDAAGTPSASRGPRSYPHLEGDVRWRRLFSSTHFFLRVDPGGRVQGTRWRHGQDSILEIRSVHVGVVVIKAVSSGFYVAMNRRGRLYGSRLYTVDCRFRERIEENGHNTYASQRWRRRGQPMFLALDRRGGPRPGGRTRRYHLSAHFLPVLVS
Ecoli growth: inhibitors of Escherichia coli growth | OD600, 23 h; stronger effect = lower value | OD600 absorbance (no concentration beside the values) | hit rate 0.21% among 330,000;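 active = OD600 absorbance below the run mean of sample wells minus 3.6 SD, in any replicate, cut at about 0.56 in these data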;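 note: stock transfer was 300 nL into about 60 µL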
HNF4A DNA FP: change in binding of human HNF4 alpha to DNA; P41235; HNF4a-FITC DNA binding, fluorescence polarization, 1 h; activity change, % at 10 µM; hit rate 0.3% among 360,000; in the data active = activity change above about 30%, passing the limit was not always enough;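 note: controls were the assay level and a saturating level of protein; the project sought stronger binding though the title names inhibitors; some compounds called inactive have numbers as strong as hits; positive values seem to mean higher polarization but the record does not say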
ALR inh: human ALR oxidase inhibition via reduced H2O2 | purified ALR, DTT oxidation, H2O2 HRP-luminol luminescence | inhibition, % (no concentration beside the values) | hit rate 3.8% among 290,000 | AID 485317;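 active = mean and each replicate at 75% or more; inconclusive = only one of the two met; inactive = neither met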;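 note: stock transfer was 7.5 nL into about 7.5 µL; 0% = neutral wells and 100% = wells with inactivated enzyme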
Target sequence (P55789 whole entry, looked up): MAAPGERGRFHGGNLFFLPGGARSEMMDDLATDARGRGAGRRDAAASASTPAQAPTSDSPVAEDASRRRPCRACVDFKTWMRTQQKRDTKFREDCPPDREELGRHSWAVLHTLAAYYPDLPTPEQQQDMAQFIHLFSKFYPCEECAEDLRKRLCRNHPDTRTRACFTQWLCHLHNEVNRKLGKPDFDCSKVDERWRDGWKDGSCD
Ecoli rRNA inh OD600: also measured in Ecoli rRNA inh; calls as there; OD600 change, %; measured here: OD600 growth;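 optical density of the mix in the first replicate; 0 = DMSO median and -100 = no signal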
Ecoli rRNA inh RFP: recorded beside Ecoli rRNA inh, whose call it bears; RFP signal change, %; measured here: RFP humanized mutant strains;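 first replicate; 0 = DMSO median and -100 = no signal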
Active calls of the source: *; i = inactive; ? = inconclusive; . = not tested or not shown; & = joins results of further samples. Some of the compounds tested. The share of hits here may be higher or lower than overall.

SMILES	Ecoli rRNA inh	Ecoli rRNA inh OD600	Ecoli rRNA inh RFP	AF4-AF9 inh	Vif A3G	FGF22 binding	Ecoli growth	HNF4A DNA FP	ALR inh
Cc1ccc(-c2cnc3c(c2)C(=O)N([C@H](C)CO)C[C@@H](C)[C@H](CN(C)C(=O)Cc2ccncc2)O3)cc1	-7	1	0.5	5.1	.	i	.	.	.
COC(=O)C[C@@H]1C[C@H]2c3cc(NC(=O)C4CCC4)ccc3O[C@H]2[C@@H](CO)O1	5&5	5&0	-1.7&-2.5	-1.1&-3.0	-3%	i	.	-3.2	.
O=C(Nc1ccccc1)Nc1n[nH]c2nnc(-c3ccccc3)c(-c3ccccc3)c12	.	.	.	1.4	.	i	0.68	-1.5	-1
O=C(Nc1ccccc1-c1ccccc1)NC1CC2CCCC(C1)N2CCc1ccccc1 (centres undefined)	17	8	2.7	-2.0	.	i	0.65	2.0	1
COc1ccc(N2CCN(C(=O)CNS(=O)(=O)c3ccc(C)c(C)c3)CC2)cc1	8	5	1.4	1.8	.	i	0.67	-3.7	52
Cc1ccc(C(=O)c2ccccc2C(=O)OCC(=O)NCCc2ccccc2)cc1	.	.	.	.	-4%	.	0.67	-2.0	25
Cc1ccc(S(=O)(=O)N(NC2=NS(=O)(=O)c3ccccc32)C(=O)c2ccccc2)cc1	10	2	0.7	0.6	3%	i	0.69	4.9	-2
O=C(CN1C(=O)c2ccccc2C1=O)Nc1cccnc1	5	8	-5.1	.	-3%	.	0.72	0.5	-10
COc1ccc(-n2nc3cc(N)c(Br)cc3n2)cc1	-27*	-15*	-0.9*	3.0	-13%	i	0.65	-0.9	-24
CNc1ccncc1S(=O)(=O)NC	.	.	.	.	?	.	0.66	3.6	-27
CNC(=O)c1[nH]cnc1C(=O)Nc1ccc(C)cc1	19	13	-5.5	1.7	10%	i	0.7	-4.2	1
C=CCNC(=O)CN1CCC(c2nc3ccccc3[nH]2)CC1	19	3	-0.8	-0.4	.	i	0.72	-2.3	-11
CC(C(=O)NN=C(c1ccccc1)c1ccccc1)N1CCOCC1 (centres undefined)	-10	-9	-1.2	1.6	1%	i	0.66	2.7	.
O=C1c2ccccc2S(=O)(=O)N1CC1CC(c2ccccc2Cl)=NO1 (centres undefined)	.	.	.	.	-4%	.	.	-2.5	-30
Cc1cccc(/C=N/NC(=O)c2ccc(NC(=O)c3ccccc3Cl)cc2)n1	8	2	-2.6	-3.9	.	i	.	-1.5	.
CCCCn1c(O)c(N=Nc2ccccn2)c2ccccc21	.	.	.	.	-6%	.	0.7	3.6	-3
COc1ccc(Cl)cc1CC1(C)C(=O)Nc2ccc(-c3ccccc3OC)cc21 (centres undefined)	1	2	5.9	-5.4	.	i	.	-0.4	.
C#CCOc1ccc(/C=C2/C(=O)ON=C2C)cc1Cl	1	13	-1.0	0.5	2%	i	0.67	-0.6	49
Cc1cc(N)n(-c2ccccc2C)n1	10	8	-2.0	-0.3	-1%	.	0.69	0.2	-4
N=C1/C(=C/c2cccn2CCOc2ccccc2)C(=O)N=C2SC=C(c3ccccc3)N12	2	14	2.3	7.7	.	i	0.74	6.4	2
Cc1nccn1CCCN1C(=O)CNC1=S	15	21	6.2	-0.5	3%	.	0.7	-0.4	2
CC(OC(=O)c1cc(=O)[nH]c2ccccc12)C(=O)NC1CCCCC1C (centres undefined)	2	2	0.0	-1.9	4%	i	0.61	-0.4	-4
CCOC(=O)c1c(-c2ccc(C)o2)csc1NC(=O)CSc1nnnn1-c1ccccc1	.	.	.	.	2%&-12%	.	0.72	-1.6	4
Cc1cc(C(=O)Nc2ccc3nc(C)sc3c2)c2ccccc2n1	1	4	-1.2	-12	4%	i	0.69	-0.4	-7
COc1ccc(CNc2ncccn2)cc1OC	12	20	-0.8	-11	3%	.	0.69	-1.1	-3
O=C(CCN1C(=O)c2ccccc2C1=O)NCc1ccc(F)cc1	19	13	4.0	-1.6	.	i	0.65	-6.3	.
O=C(C1CC(=O)N(c2ccc3c(c2)OCCO3)C1)N1CCN(S(=O)(=O)c2cccc(F)c2)CC1 (centres undefined)	4	1	0.4	1.6	.	i	.	1.4	.
O=C(OCc1ccccc1)N1CCC2CC1c1ccc(N3CCNCC3)cc12 (centres undefined)	-3	-4	1.3	14	1%	i	.	-1.1	.
CCC1=C(OC(=O)N(CC)CC)N2C(=O)OC(=NCCc3c[nH]c4ccccc34)[C@]2(C)[C@H]2C1=CC[C@H]1C(=O)N(C)C(=O)[C@H]12	1	0	0.6	.	-1%	i	.	-1.5	-25
c1ccc(-n2nnnc2-c2cnc(-c3ccncc3)nc2-c2cccs2)cc1	.	.	.	.	13%	.	0.68	-3.7	.
O=c1[nH]c(C2CCN(S(=O)(=O)c3ccc(S(=O)(=O)NC4CC4)cc3)CC2)nc2c1nnn2Cc1cccc(F)c1	-5	-15	9.4	-1.1	.	i	0.67	-1.2	-10
CCOc1ccc(Oc2nc(NCC(C)C)nc(N(C)C)n2)nn1	.	.	.	.	0%	.	0.79	2.4	-4
CCC1CCCCN1C(=O)CSc1nnc(-c2ccc(Cl)s2)o1 (centres undefined)	.	.	.	.	13%	.	0.72	3.6	-1
CCOC(=O)c1cnc2c(ccc3ccccc32)c1N	18	11	1.2	-0.9	.	i	0.72	31	5
COc1ccc(-n2ncc3c2CC(C)(C)CC3NC(=O)C2=CC(=O)CC(C)(C)O2)cc1 (centres undefined)	-6	-6	-1.2	-1.6	0%	i	0.67	-3.0	-50
Cc1ccc(C)c(Cn2c(=O)n(-c3ccc(CC(=O)NCc4ccco4)cc3)c(=O)c3sccc32)c1	3	2	-0.3	4.2	-3%	i	0.78	0.2	-4
CN(C=O)c1cc([N+](=O)[O-])ccc1OCc1ccccc1	-16	14	6.8	-4.9	-1%	i	.	2.6	.
CO[C@H]1CC[C@H]2CCN(C)C(=O)C[C@H](c3ccccc3)CN(C)C(=O)c3cc(C#N)ccc3OC[C@H]1O2	-1	1	-1.4	-2.5	.	i	.	.	.
Cc1ccc(-n2sc3ccccc3c2=O)cc1S(=O)(=O)N1CCCCC1	-1	6	1.8	-22	7%	i	0.65	-2.1	.
Cc1noc(C)c1S(=O)(=O)Nc1ccc2c(c1)CC(=O)N([C@@H](C)CO)C[C@H](C)[C@@H](CN(C)S(=O)(=O)c1ccccc1)O2	-1	-4	-1.5	-0.2	.	i	.	.	.
COc1ccc(S(=O)(=O)N(C)C[C@@H]2Oc3ccc(NS(C)(=O)=O)cc3CC(=O)N([C@@H](C)CO)C[C@H]2C)cc1	6	-3	-0.8	-3.9	.	i	.	.	.
NC(=O)CC[C@H](NC(=O)c1ccc(F)cc1)C(=O)OCC(=O)Nc1ccc(N2CCOCC2)cc1	11	3	-3.3	2.1	17%	i	0.69	-0.3	62
Cc1ccccc1S(=O)(=O)NCC[C@H]1CC[C@H](NC(=O)C2CCCCC2)[C@H](CO)O1	2	-5	2.0	9.4	.	i	.	.	.
CN(Cc1ccccc1)C(=O)COC(=O)c1ccccc1SCC(=O)N1CCCC1	1	-1	3.0	0.4	-3%	i	0.69	-2.7	.
CCOc1ccc(NC(C)=O)cc1	.	.	.	-1.5	.	i	0.66	3.8	-2
COc1ccc(OC)c(NC(=O)C(=O)NCCC2=CCCCC2)c1	.	.	.	.	7%	.	0.74	-1.8	-12
Cc1nn(Cc2ccc(Cl)cc2)c(C)c1NC(=O)c1c(-c2ccccc2)noc1C	.	.	.	.	1%	.	0.72	-0.2	-10
CCCn1cc(CN2CCCC(CNC(=O)c3ccc(F)cc3)C2)c(C)n1 (centres undefined)	18	9	0.4	-0.6	11%	i	0.66	5.2	-11
CCOC(=O)[C@]12CCC=C1N(Cc1ccco1)C(=O)[C@H](CC(=O)NCCc1ccccc1OC)C2	2	16	-0.3	-3.4	.	i	.	-1.9	.
CCOC(=O)c1c(C)c(C(=O)Nc2ccc(N(C)C)cc2)c(C)n1CC	-16*	3.1*	-0.9*	7.5	10%	i	0.7	-0.4	99*
The listing continues:
SMILES	Ecoli rRNA inh	Ecoli rRNA inh OD600	Ecoli rRNA inh RFP	AF4-AF9 inh	Vif A3G	FGF22 binding	Ecoli growth	HNF4A DNA FP	ALR inh
C[C@@H]1CCCCO[C@H](CN(C)S(C)(=O)=O)[C@@H](C)CN([C@H](C)CO)C(=O)c2cc(NS(=O)(=O)c3ccccc3)ccc2O1	3	-1	1.0	-3.2	.	i	.	.	.
CCCCCCC/C=N/Nc1nnc(Cc2ccccc2)c(=O)[nH]1	8	3	5.7	-1.8	.	i	.	0.8	-9
O=C(O)C(c1ccccc1)N1C(=O)/C(=C/c2cccs2)SC1=S (centres undefined)	-18	-16	2.3	-3.4	-6%	i	0.65	-4.9	98*
C=CCNC(=S)NNc1nc2c(c(=O)[nH]1)C1(CCCCC1)Cc1ccccc1-2	-19	-22	0.4	0.1	.	i	0.69	0.3	-9
C/C=C/c1ccc2c(c1)O[C@H](CN(C)Cc1cncnc1)[C@@H](C)CN([C@@H](C)CO)S2(=O)=O	-6	8	5.7	0.9	.	i	.	.	.
COc1ccc(-c2c(C)c3ccc(OCC(C)=O)cc3oc2=O)cc1	.	.	.	1.7	-2%	.	0.69	.	0
Cc1noc(C)c1S(=O)(=O)Nc1ccc2c(c1)C(=O)N([C@@H](C)CO)C[C@@H](C)[C@H](CN(C)C(=O)CCC(F)(F)F)OCCCC[C@@H](C)O2	-3	-2	-0.7	0.1	.	i	.	.	.
C[C@H]1CN([C@@H](C)CO)C(=O)c2cc(N(C)C)ccc2O[C@H]1CN(C)S(=O)(=O)c1cn(C)cn1	-1	2	-2.4	-2.7	.	i	.	.	.
COc1ccccc1-c1cn(CC[C@H]2CC[C@@H](NC(=O)C3CC3)[C@H](CO)O2)nn1	2	0	-1.2	-7.5	.	i	.	.	.
Cc1ccccc1-c1ccc2c(c1)O[C@H](CN(C)C(=O)Nc1ccc(C(F)(F)F)cc1)[C@@H](C)CN([C@H](C)CO)S2(=O)=O	2	16	-1.2	2.2	.	i	.	.	.
NC(=O)N/N=C/C=C/c1ccccc1	5	14	-3.7	2.0	.	i	.	-4.5	.
CCC(=O)N1[C@H](C(=O)NC2CCCC2)[C@@H](CO)[C@@H]2Cn3c(ccc(C4=CCCC4)c3=O)[C@@H]21	-2	-1	-3.5	-0.8	.	i	.	.	.
Cc1noc(C)c1NC(=O)Nc1ccc2c(c1)CC(=O)N([C@@H](C)CO)C[C@H](C)[C@@H](CN(C)C(=O)Nc1ccccc1)O2	2	4	0.2	-2.0	.	i	.	.	.
COc1ccc(/C=C2\C(=O)N(Cc3ccc(F)cc3)CC(=O)N2Cc2ccccc2)cc1	.	.	.	.	-5%	.	0.77	1.4	0
